From PubChem BioAssay
Mtb growth: M. tuberculosis H37Rv growth inhibitors, H37Rv strain (AID 1626). M. tuberculosis H37Rv growth inhibition; higher % means a stronger effect. one-dose inhibition, % at 10 µM; IC50 in µM for titrated hits. actives 0.95% (n = 220,000);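 active = confirmed in a dose series; inconclusive = inhibition above 80% but not taken into the dose series; inactive = below 80% or under 30% at every dose of the series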;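 note: bacteria incubated seven days before Alamar blue readout; 0% = bacteria only wells and 100% = bacteria with antibiotic wells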
RecA splice inh: Mtb RecA intein splicing inhibition | P9WHJ3 | cell-free RecA intein splicing, fluorescence | inhibition, %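 (about 9 µM by stock and volumes)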 | actives 0.75% (n = 290,000) | AID 2221; in the data active = inhibition above about 30%; inconclusive = no clear call, values can overlap the other calls;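 note: 0% = vehicle wells and 100% = reference inhibitor control wells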
Target sequence (P9WHJ3 whole entry, looked up, canonical isoform): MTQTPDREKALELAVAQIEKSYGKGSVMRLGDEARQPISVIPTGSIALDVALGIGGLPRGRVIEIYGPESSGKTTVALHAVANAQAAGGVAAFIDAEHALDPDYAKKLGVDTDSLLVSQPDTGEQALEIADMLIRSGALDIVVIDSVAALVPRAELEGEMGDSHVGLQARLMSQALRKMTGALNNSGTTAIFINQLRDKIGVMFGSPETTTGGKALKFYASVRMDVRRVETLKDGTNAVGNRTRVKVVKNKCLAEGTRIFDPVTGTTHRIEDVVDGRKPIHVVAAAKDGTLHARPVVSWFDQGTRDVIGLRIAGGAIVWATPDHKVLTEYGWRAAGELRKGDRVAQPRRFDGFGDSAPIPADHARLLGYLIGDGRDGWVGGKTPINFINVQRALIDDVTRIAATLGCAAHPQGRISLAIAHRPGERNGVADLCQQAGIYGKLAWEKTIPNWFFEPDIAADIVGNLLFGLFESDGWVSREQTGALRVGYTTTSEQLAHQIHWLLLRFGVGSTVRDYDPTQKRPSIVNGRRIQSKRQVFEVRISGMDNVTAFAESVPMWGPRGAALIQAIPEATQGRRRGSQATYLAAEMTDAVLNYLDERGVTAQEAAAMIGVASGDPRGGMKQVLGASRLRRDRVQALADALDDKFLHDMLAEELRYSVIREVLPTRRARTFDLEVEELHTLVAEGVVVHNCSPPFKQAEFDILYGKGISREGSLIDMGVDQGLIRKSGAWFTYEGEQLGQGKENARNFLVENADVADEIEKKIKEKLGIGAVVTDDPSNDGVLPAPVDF
Arbovirus anti: antivirals against arbovirus infection | arbovirus infection cell-based antiviral screen | inhibition, % at 10 µM | actives 0.37% (n = 200,000);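 active = inhibition from about 30%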;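 note: bluetongue infection of BSR cells; cell survival read as ATP light after 72 h; 0% = infected wells without compound and 100% = uninfected wells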
YopH inh: YopH (Yersinia) phosphatase inhibition; inhibition, %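 (about 10 µM by stock and volumes)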; AID 898; fluorescence Ex485/Em525; actives 0.16% (n = 140,000);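 active = inhibition of 50% or more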;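 note: controls were vehicle for no effect and minimum signal wells for full effect; inactives centre near -20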
Mtb bLac sens: beta-lactam sensitization of Mtb H37Rv; M. tuberculosis H37Rv growth with meropenem, percent inhibition; hits of this screen are not shown here; inhibition, % at 25 µM; actives 0.27% (n = 330,000); AID 434955;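 active = about 74% or more and at least 40 points above the plate without the antibiotic, then above 30% in a dose series; inconclusive = first-round hits that could not be retested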;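 note: growth measured after seven days incubation then overnight dye step; 0% = bacteria only wells and 100% = bacteria with antibiotic; twin plates without the antibiotic show which effects depend on it; some results filed as inactive read as strong as hits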
Arbovirus anti repeat: further read-out of Arbovirus anti, marked with its call; inhibition, %; measured here: 10K subset replicate screen; many hits read low in the repeat;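 first of two repeat runs on a subset; 0% = infected and 100% = uninfected wells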
* hit, by the source's call. This is a subset (hit frequency here may not be typical).

Screening Cc1ccc(NC(=S)NCc2ccccc2)cc1[N+](=O)[O-] returned Mtb growth 78%, RecA splice inh 2.2, Arbovirus anti 21, YopH inh -22 and Mtb bLac sens 68.
For O=C1c2ccccc2C(=O)N1OCc1cccc(Cl)c1 the results were Mtb growth -1%, RecA splice inh 0.3, Arbovirus anti -7, YopH inh -54 and Mtb bLac sens 4.
For CCN(CC)S(=O)(=O)c1ccc(-c2csc(C)n2)cc1 the results were Mtb growth 8%, RecA splice inh 4.2, Arbovirus anti -3 and Mtb bLac sens -5.
O=C(Nc1nc2ccc(SC(F)F)cc2s1)c1ccc(NS(=O)(=O)c2ccc(F)c(F)c2)cc1 was read as Mtb growth inconclusive, RecA splice inh 0.6, Arbovirus anti -9, YopH inh -15 and Mtb bLac sens 100.
`COc1ccc2nc(SCc3cnc(C)nc3N)[nH]c2c1` gave Mtb growth 1%, RecA splice inh -0.8, Arbovirus anti -3, YopH inh -1 and Mtb bLac sens 4.
Screening Cc1nc(C(C)NC(=O)c2ccc(OC3CCN(Cc4ccccn4)CC3)cc2)c(C)s1 (configuration not stated) returned RecA splice inh -3.8 and Mtb bLac sens 2.
For O=C(CN1C(=O)C2C3C=CC(C3)C2C1=O)Nc1nc(-c2ccccn2)cs1 (configuration not stated) the results were Mtb growth 12%, RecA splice inh -1.8, Arbovirus anti -41, YopH inh 0 and Mtb bLac sens 86.
CCc1nnc(NC(=O)C2=CCN(S(=O)(=O)c3ccc(F)cc3)CC2)s1 was read as Mtb growth -8%, RecA splice inh -0.2 and Mtb bLac sens -3.
For COc1cc(C(CC(=O)Nc2ccccn2)N2Cc3ccccc3C2=O)cc(OC)c1OC (configuration not stated) the results were RecA splice inh -0.6 and Mtb bLac sens -4.
Screening CCC(C)NC(=O)C1c2ccccc2C(=O)N1Cc1ccc(F)cc1 (configuration not stated) returned RecA splice inh -2.1 and Mtb bLac sens 3.
`CCOC(=O)CN1CC23C=CC(O2)C(C(=O)NCc2ccccc2OC)C3C1=O` (configuration not stated) gave Mtb growth -4%, RecA splice inh -1.2, Arbovirus anti 5, YopH inh 7, Mtb bLac sens 0 and Arbovirus anti repeat -6.
Screening CCOC(=O)c1ccccc1NC(=O)c1cncc(Br)c1 returned Mtb growth 2%, RecA splice inh 0.4, Arbovirus anti 4 and YopH inh -11.
Screening CCCCn1c(N)c(N(CCOC)C(=O)c2ccc(Br)s2)c(=O)[nH]c1=O returned RecA splice inh 1.8 and Mtb bLac sens -10.
COc1ccc(N2CC(O)=C(c3nc4ccccc4s3)C2=N)c(OC)c1 was read as Mtb growth 1%, RecA splice inh 1.2, Arbovirus anti 6, YopH inh -25 and Mtb bLac sens -1.
`COc1ccccc1CCC(=O)OCC(=O)Nc1ccc(C(N)=O)cc1` gave RecA splice inh -0.1 and Mtb bLac sens -6.
CCn1c2ccccc2n2c(=O)c(=O)n(CC(=O)N3CCN(c4ccccc4OC)CC3)nc12 was read as Mtb growth 9%, RecA splice inh -0.7, Arbovirus anti -4 and Mtb bLac sens -9.
For CC(=O)/C(=C/N(C)C)C(=O)Nc1ccc(Cl)cc1Cl the results were Mtb growth 5%, RecA splice inh 10, Arbovirus anti 13 and Mtb bLac sens 20.
CN(C)S(=O)(=O)c1cc(NC(=O)COC(=O)C2COc3ccccc3O2)ccc1Cl (configuration not stated) was read as Mtb growth 4%, RecA splice inh 4.9, Arbovirus anti 12 and Mtb bLac sens 4.
`CCOc1ccccc1OCCOc1ccccc1OC(C)C` gave Mtb growth 2%, RecA splice inh 2.1, Arbovirus anti 3, YopH inh -4 and Mtb bLac sens 26.
For CCOc1ccc(C(=O)NC(=S)N2CCN(c3ccc(C(F)(F)F)cc3[N+](=O)[O-])CC2)cc1 the results were Mtb growth 1%, RecA splice inh 1.9, Arbovirus anti -7, YopH inh -14 and Mtb bLac sens 8.
Screening Cc1ccc(C(=O)NCCn2cc(SCC(=O)N3CCOCC3)c3ccccc32)cc1 returned Mtb growth -1%, RecA splice inh -4.3, Arbovirus anti -1, YopH inh -42 and Mtb bLac sens -3.
For Cc1ccc2cc3cc(C(=O)NCc4ccco4)oc3nc2c1 the results were Mtb growth 14%, RecA splice inh 0.7, Arbovirus anti -29, YopH inh -56 and Mtb bLac sens 60.
C=CCN1C(=NC(=O)COc2ccccc2)SC2CS(=O)(=O)CC21 (configuration not stated) was read as RecA splice inh -0.8 and Mtb bLac sens -3.
`CCOc1ccccc1C1CC(c2ccc(F)cc2)Nc2nc(N)nn21` (configuration not stated) gave Mtb growth -3%, RecA splice inh 2.9, Arbovirus anti 3, YopH inh -24, Mtb bLac sens 6 and Arbovirus anti repeat 9.
O=C(Nc1ccc(N2CCOCC2)cc1)c1ccc(Br)o1 was read as RecA splice inh 4.9 and Mtb bLac sens 1.
Screening Cc1ccc(-c2cnc3n2CCCCC3)cc1 returned Mtb growth 8%, RecA splice inh -1.1, Arbovirus anti 10 and Mtb bLac sens -1.
`CCN(CC)c1ccc(NC(=O)c2c(C)noc2C)cc1` gave RecA splice inh -3.8 and Mtb bLac sens -6.
`CSc1ncccc1C(=O)N1CCCC(N2CCN(c3ccccc3F)CC2)C1` (configuration not stated) gave RecA splice inh -1.8 and Mtb bLac sens -15.
Screening Cn1c(=O)cc(SCC(=O)NCCCN2CCOCC2)c2ccccc21 returned Mtb growth -4%, RecA splice inh -3.9, Arbovirus anti 3, YopH inh -6 and Mtb bLac sens -6.
`O=c1c2ccccc2n2c(-c3ccc(C(F)(F)F)cc3)nnc2n1Cc1ccccc1` gave Mtb growth 1%, RecA splice inh -3.2, Arbovirus anti -7, YopH inh -22 and Mtb bLac sens -6.
Screening Cc1onc(-c2ccccc2)c1C(=O)NCC1CCN(C(=O)c2c(-c3ccccc3)noc2C)CC1 returned Mtb growth -9%, RecA splice inh -5.7, Arbovirus anti 2, YopH inh -4 and Mtb bLac sens -7.
Screening Cc1ccc(CN2CCN(C3CSCCSC3)CC2CCO)cc1 (configuration not stated) returned Mtb growth 0%, RecA splice inh 1.1, Arbovirus anti 2 and Mtb bLac sens -7.
For O=C(C1CCC(CNc2c(N3CCCC3)c(=O)c2=O)CC1)N1CCc2ccccc21 (configuration not stated) the results were Mtb growth 2%, RecA splice inh 2.4 and Mtb bLac sens 0.
COc1ccc(CN2CCN(Cc3ccc(C)cc3)CC2)c(OC)c1 was read as RecA splice inh -0.8 and Mtb bLac sens 1.
`CC(C)(C)NC(=O)N1CCCC(C(=O)c2cccc(Cl)c2)C1` (configuration not stated) gave Mtb growth 5%, RecA splice inh 2.3, Arbovirus anti 5 and Mtb bLac sens 2.
For CC(=O)c1[nH]c(C)c(C(=O)N2CCCC(Nc3cccc(F)c3)C2)c1C (configuration not stated) the results were RecA splice inh -1.0 and Mtb bLac sens -7.
Cn1c(-c2cccc(Br)c2)cnc1NCc1ccccc1O was read as RecA splice inh 0.2 and Mtb bLac sens 14.
Screening CN(C(=O)COC(=O)c1ccc2c(c1)OCO2)C1CCS(=O)(=O)C1 (configuration not stated) returned Mtb growth -4%, Arbovirus anti 8, YopH inh -38 and Mtb bLac sens -4.
`CC(=O)C1=C(C)NC(SCSc2ccccc2)=C(C#N)C1c1cccnc1` (configuration not stated) gave Mtb growth 9%, RecA splice inh -1.1, Arbovirus anti -12, YopH inh 5 and Mtb bLac sens 4.
For O=C(Nc1ccc(F)c(F)c1)C1=COCCO1 the results were RecA splice inh -0.1 and Mtb bLac sens 2.
Screening COc1ccc(NC(=O)NNC(=O)C(C)Oc2ccc3ccccc3c2)cc1 (configuration not stated) returned RecA splice inh -1.8 and Mtb bLac sens 3.
`CCOC(=O)N1CCC(N2Cc3cccc(C(=O)Nc4c(C)cccc4CC)c3C2=O)CC1` gave RecA splice inh 8.2 and Mtb bLac sens 3.
Cc1cccc2c1-c1sc(C(=O)N3CCCCC3)cc1CO2 was read as RecA splice inh 5.1 and Mtb bLac sens inconclusive.
For COc1c(C)cc(C(=O)C2CCCN(C(=O)c3cc(C4CC4)[nH]n3)C2)cc1C (configuration not stated) the results were RecA splice inh -8.8 and Mtb bLac sens -4.
For O=C(Nc1ccsc1C(=O)N1CCCC1)c1ccccc1 the results were Mtb growth 0%, RecA splice inh 2.1, Arbovirus anti 4 and Mtb bLac sens 3.
Cc1ccsc1/C=N/Nc1ccc(C(=O)O)cc1 was read as RecA splice inh -6.8 and Mtb bLac sens 6.
`Cc1cc(=O)n2[nH]c(-c3ccc(F)cc3)nc2n1` gave Mtb growth 11%, RecA splice inh -2.8, Arbovirus anti 2, YopH inh -42 and Mtb bLac sens 13.
Screening Cc1cc(C)n(-c2ccc(Cl)c(C(=O)Nc3ccc(-c4nnc5n4CCCCC5)cc3)n2)n1 returned Mtb growth -4%, RecA splice inh -1.1, Arbovirus anti -3, YopH inh -23 and Mtb bLac sens 50.
For CCn1c(SCC(=O)N2CCCC2)nnc1-c1ccc(S(=O)(=O)N2CCCCCC2)cc1 the results were Mtb growth 9%, RecA splice inh 1.3, Arbovirus anti -9, YopH inh -11 and Mtb bLac sens 2.
CCCCN(CC)C(=O)Cn1ncc2c1-c1cc(C)ccc1OC2 was read as Mtb growth 8%, RecA splice inh 0.6, Arbovirus anti 1, YopH inh -42 and Mtb bLac sens -8.
Screening O=C(NCCCCC(NC(=O)C1CCCCC1)C(=O)O)c1ccccc1 (configuration not stated) returned Mtb growth -4%, RecA splice inh 4.1, Arbovirus anti 9, YopH inh -28 and Mtb bLac sens -6.
Screening CCOC(=O)C1(CCCc2ccccc2)CCN(Cc2ccn[nH]2)CC1 returned Mtb growth 6%, RecA splice inh 0.3, Arbovirus anti -12 and Mtb bLac sens -12.
`NN(CCO)C(=S)Nc1ccc(Cl)cc1` gave Mtb growth 2%, RecA splice inh 0.5, Arbovirus anti 7 and Mtb bLac sens -1.
CC(C(=O)Nc1ccon1)N1C(=O)c2ccccc2S1(=O)=O (configuration not stated) was read as RecA splice inh -1.7 and Mtb bLac sens -7.
COCCCNC(=O)C1CCCN(S(=O)(=O)c2ccc(C)cc2)C1 (configuration not stated) was read as Mtb growth -8%, RecA splice inh 0.6, Arbovirus anti 7, YopH inh -18 and Mtb bLac sens 4.
For O=C(Nc1ccc(F)cc1F)c1ccc2c(c1)[nH]c(=O)n2Cc1ccc(F)cc1 the results were RecA splice inh 0.8 and Mtb bLac sens -3.
Screening CCN(CC)C1CCS(=O)(=O)C1 (configuration not stated) returned Mtb growth 24%, RecA splice inh -1.8, Arbovirus anti 10 and Mtb bLac sens 0.
Screening Cc1ccc(CNC(=O)CCc2ccccc2)cc1 returned Mtb growth 0%, RecA splice inh 0.6, Arbovirus anti -1 and Mtb bLac sens 1.
Screening CCc1sc(C(=O)NCCc2ccc(S(N)(=O)=O)cc2)cc1C returned RecA splice inh 0.0 and Mtb bLac sens -1.
For CCOc1ccc(/C=N/NC(=O)C(C)N(c2ccc(OC)cc2)S(C)(=O)=O)cc1OCC (configuration not stated) the results were Mtb growth 5%, RecA splice inh 0.3, Arbovirus anti 20 and Mtb bLac sens 0.

Of the compounds above, 6 contain a Cl atom:
For O=C1c2ccccc2C(=O)N1OCc1cccc(Cl)c1 the results were Mtb growth -1%, RecA splice inh 0.3, Arbovirus anti -7, YopH inh -54 and Mtb bLac sens 4.
For CC(=O)/C(=C/N(C)C)C(=O)Nc1ccc(Cl)cc1Cl the results were Mtb growth 5%, RecA splice inh 10, Arbovirus anti 13 and Mtb bLac sens 20.
CN(C)S(=O)(=O)c1cc(NC(=O)COC(=O)C2COc3ccccc3O2)ccc1Cl (configuration not stated) was read as Mtb growth 4%, RecA splice inh 4.9, Arbovirus anti 12 and Mtb bLac sens 4.
`CC(C)(C)NC(=O)N1CCCC(C(=O)c2cccc(Cl)c2)C1` (configuration not stated) gave Mtb growth 5%, RecA splice inh 2.3, Arbovirus anti 5 and Mtb bLac sens 2.
Screening Cc1cc(C)n(-c2ccc(Cl)c(C(=O)Nc3ccc(-c4nnc5n4CCCCC5)cc3)n2)n1 returned Mtb growth -4%, RecA splice inh -1.1, Arbovirus anti -3, YopH inh -23 and Mtb bLac sens 50.
`NN(CCO)C(=S)Nc1ccc(Cl)cc1` gave Mtb growth 2%, RecA splice inh 0.5, Arbovirus anti 7 and Mtb bLac sens -1.

(continued)
Screening O=C(CC(SCc1ccco1)c1ccc(O)cc1)c1cccs1 (configuration not stated) returned Mtb growth 27µM*, RecA splice inh 8.8, Arbovirus anti -9, YopH inh -15 and Mtb bLac sens 98.
Screening Cc1ccc(N2C(=O)CC(Sc3ccccc3C(=O)O)C2=O)cc1 (configuration not stated) returned Mtb growth 3%, RecA splice inh -1.1, Arbovirus anti 0, YopH inh -23 and Mtb bLac sens -4.
`CCCc1nn(C)c(C(=O)Nc2cccc(C)c2)c1Cl` gave Mtb growth 3%, RecA splice inh 0.9, Arbovirus anti 5, YopH inh -10 and Mtb bLac sens 10.
For CC(=O)c1ccc(-c2ccccc2OC(F)(F)F)o1 the results were Mtb growth -1%, RecA splice inh 2.2 and Mtb bLac sens -6.
